BmaI1 – BmaI1 acyl-homoserine lactone synthase inhibition – biochemical, fluorescence intensity, with counterscreen (AID 720554); BmaI1 enzyme assay, fluorescence intensity; hits give high values; test concentration not given here; a few actives read low; strong numbers were not always called active; inhibition, %; 0.4% of 12,000 active;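 active = both replicates within 2 robust z-scores of the inhibited control and a quiet counterscreen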;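 note: 0% = uninhibited enzyme and 100% = inhibited control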
BmaI1 counterscreen – second read-out of BmaI1, no call of its own (marks repeat the call); inhibition, %; measured here: counterscreen; design of the counterscreen not given here;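 first of two replicates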
The depositor's hits bear a star. Only part of the results is shown (hit frequency here may not be typical).

| Compound | BmaI1 | BmaI1 counterscreen |
| --- | --- | --- |
| O=C(CN1C(=O)NC(Cc2c[nH]c3ccccc23)C1=O)c1ccc(F)cc1 (configuration not stated) | 11.0 | -7.5 |
| Cc1cc(C(=O)CSc2nc3ccc(Cl)cc3[nH]2)c(C)n1Cc1ccco1 | 10.0 | -0.5 |
| CCN=C1NC(=O)C(CC(=O)NCCc2ccccc2)S1 (configuration not stated) | 2.5 | -1.5 |
| Cc1cccc(C)c1NC(=O)CN(C)c1ccc(S(=O)(=O)N(C(C)C)C(C)C)cn1 | 13.0 | 6.5 |
| CN(C)C(=O)Cn1nc(C(=O)O)c2ccccc2c1=O | 10.5 | 13.5 |
| Cc1oc2nc[nH]c(=O)c2c1C(=O)NC1CCCCCC1 | 10.0 | -2.5 |
| O=S(=O)(c1ccccc1C(F)(F)F)N1CCN(c2ncccn2)CC1 | 9.5 | 1.0 |
| COc1ccc(C(=O)COC(=O)c2ccc3c(=O)n4c(nc3c2)CCC4)cc1OC | 12.5 | -1.5 |
| O=C(COC(=O)/C=C/c1ccco1)Nc1nnc(-c2ccccc2)o1 | 50.0 | -13.0 |
| O=C(OCC(=O)N1CCN(c2ccccc2)CC1)c1ccco1 | 6.0 | 8.5 |
| O=C(CNCCc1ccc2c(c1)OCCO2)NC1CCCCCC1 | 14.5 | 11.0 |
| COc1ccc(N(Cc2ccno2)S(=O)(=O)c2ccccc2)cc1 | 14.0 | 18.0 |
| COc1ccc(NC(=O)Nc2cccc(C)c2)cc1 | 15.0 | 20.0 |
| CNC(=O)COC(=O)c1ccc(-c2cccc(C(F)(F)F)c2)o1 | 16.0 | 3.0 |
| CC(C)NC(=O)CSc1n[nH]c(-c2ccc(Br)cc2)n1 | 11.0 | 0.0 |
| Cc1csc(=O)n1CC(=O)OCCCn1c(=O)[nH]c2ccccc21 | 18.0 | 9.0 |
| FC(F)(F)/C(=N\P(=S)(N1CCOCC1)N1CCOCC1)N1CCOCC1 | 12.5 | 7.0 |
| COc1ccc(NS(=O)(=O)c2ccc3oc(SCC(=O)N4CCc5ccccc5C4)nc3c2)cc1 | 7.5 | -1.5 |
| COCc1c(C(=O)OCc2ncc(-c3ccccc3)o2)oc2ccccc12 | -2.0 | -1.5 |
| C(=N\N1CCCCC1)/c1cn(-c2ccccc2)nc1-c1cccnc1 | 15.5 | 10.5 |
| COC(=O)c1ccc(CNCC2COc3ccccc3O2)o1 (configuration not stated) | 9.5 | 2.5 |
| CSc1ncccc1C(=O)N(Cc1ccccc1)C1CCS(=O)(=O)C1 (configuration not stated) | 8.5 | 2.0 |
| C=CCN(CC=C)C(=O)CSC1=C(C#N)C(C)(C)C(C#N)C(=O)N1 (configuration not stated) | -20.0 | -23.5 |
| CC(C#N)(NC(=O)CN1CCN(c2cccc(C(F)(F)F)c2)CC1)C1CC1 (configuration not stated) | 7.0 | 1.0 |
| CCc1noc(C)c1C(=O)OCC(=O)c1ccc2ccccc2c1 | 9.0 | 3.5 |
| CS(=O)(=O)N1CCCC(C(F)(F)F)C1 (configuration not stated) | 7.5 | -1.5 |
| COc1ccc(CCN=C(C)C2=C(O)COC2=O)cc1OC | 15.0 | 9.0 |
| CNS(=O)(=O)c1cccc(C(=O)NCCCn2nc(C)cc2C)c1 | 25.0 | -2.5 |
| CCOC(=O)C(C#N)c1nc2ccccc2nc1N1CCN(C(=O)c2ccco2)CC1 (configuration not stated) | 22.5 | 11.0 |
| CCOC(=O)/C=C(\C)N1CCOCC1 | 8.0 | 4.0 |

Whole records from above. Order of screens: BmaI1	BmaI1 counterscreen
Shown for CN(C)C(=O)Cn1nc(C(=O)O)c2ccccc2c1=O → 10.5	13.5
Shown for CS(=O)(=O)N1CCCC(C(F)(F)F)C1 (configuration not stated) → 7.5	-1.5
Shown for O=C(OCC(=O)N1CCN(c2ccccc2)CC1)c1ccco1 → 6.0	8.5
Shown for O=C(CNCCc1ccc2c(c1)OCCO2)NC1CCCCCC1 → 14.5	11.0
Shown for O=C(COC(=O)/C=C/c1ccco1)Nc1nnc(-c2ccccc2)o1 → 50.0	-13.0

The list continues:
| Compound | BmaI1 | BmaI1 counterscreen |
| --- | --- | --- |
| CN(C)C(CNC(=O)Nc1ccccc1)c1cccs1 (configuration not stated) | 22.5 | 14.5 |
| Cc1ccc(S(=O)(=O)N(CCC(=O)O)c2ccccc2)cc1 | 8.0 | 1.0 |
| O=c1[nH]c2ccccc2n1CCCSc1ncnc2ccccc12 | 23.0 | 5.0 |
| CCCCn1nc(C)c(C(=O)O)c1Cl | -2.0 | 1.0 |
| O=C(COc1ncnc2c1cnn2-c1ccccc1)N1CCc2ccccc21 | 6.5 | 3.0 |
| CC(C)C(NC(N)=O)C(=O)NCc1ccc(Cl)cc1Cl (configuration not stated) | 14.0 | 12.5 |
| COc1ccc(OC)c(/C=C/C(=O)OC(C)C(=O)Nc2ccc(S(=O)(=O)N3CCOCC3)cc2)c1 (configuration not stated) | 4.0 | 1.0 |
| Cc1cc(C(=O)CN2C(=O)NCC(C)C2=O)c(C)n1C (configuration not stated) | 0.5 | 6.0 |
| CC1(C)CC(Nc2ncnc3sccc23)CC(C)(C)N1 | 30.0 | -1.0 |
| Cc1nc2ncnn2c(C)c1CCC(=O)OCc1ccc(C#N)cc1 | 26.0 | 9.0 |
| CN(C)c1nc(N)c2c(N)nc3c(c2c1C#N)CC(=O)N3C(=O)NC12CC3CC(CC(C3)C1)C2 | 17.0 | 2.0 |
| COC(=O)Cc1c(C)n[nH]c1C | 8.0 | 4.5 |
| Cc1nn(-c2ccc(F)cc2)c(Cl)c1/C=C/C(=O)N1CCN(CC2CCCO2)CC1 (configuration not stated) | 12.5 | 0.0 |
| COCCN(Cc1ccccc1)C(=O)c1cnn(-c2ccccc2)n1 | 17.5 | 3.5 |
| O=C(NCC(c1cccs1)N1CCOCC1)c1cc(F)cc(F)c1 (configuration not stated) | 12.5 | 11.5 |
| COc1ccc(CCN(C)C(=O)COc2ccc(NC(C)=O)cc2)cc1OC | 12.5 | 5.0 |
| Oc1c(Cl)cc(Cl)c(Cl)c1Cc1c(O)c(Cl)cc(Cl)c1Cl | 1.0 | -9.0 |
| COCSc1nnc(-c2ccncc2)n1-c1ccc(C)c(C)c1 | -12.0 | -15.0 |
| CC(=O)Nc1ccc(SCC(=O)c2cc(C)n(-c3nccs3)c2C)cc1 | 21.5 | 0.5 |
| CN(C)C(=O)C(Sc1ccc(S(=O)(=O)N2CCCC2)cn1)c1ccccc1 (configuration not stated) | 27.5 | -5.0 |
| CC[C@H](C)C(=O)O[C@H]1C[C@@H](C)C=C2C=C[C@H](C)[C@H](CC[C@@H]3C[C@@H](O)CC(=O)O3)[C@H]21 | 7.0 | 8.0 |
| COC(=O)c1ccc(COC(=O)c2ccc(OCc3c(C)noc3C)cc2)cc1 | 13.5 | 7.0 |
| COCCCCC(=NOCCN)c1ccc(C(F)(F)F)cc1 | -4.0 | 2.0 |
| CN(C(=O)COC(=O)c1cc(S(=O)(=O)N2CCOCC2)ccc1O)c1ccccc1 | 12.5 | 7.5 |
| CCCN(CC1CC1)C(=O)CSc1nc2ccccc2n1C | 4.5 | 2.0 |
| CCOc1cc(C(=O)OCC(=O)Nc2ccccc2Cl)ccc1OCC(=O)N1CCOCC1 | 6.0 | 2.5 |
| COc1cc(/C=C/C(=O)OCC(=O)N2C(C)CCCC2C)ccc1O (configuration not stated) | 65.0 | 37.0 |
| Nc1nnc(-c2cccc(Cl)c2Cl)c(N)n1 | 2.5 | 10.0 |
| COc1ccc(C)cc1NCC(=O)Nc1ccc2c(c1)OCO2 | 27.0 | 0.5 |
| Cc1nc(COC(=O)Cc2coc3cc4c(cc23)CCC4)cs1 | 18.0 | 7.5 |
| Cc1ccc(S(=O)(=O)NCC2CCC(C(=O)O)CC2)cc1 (configuration not stated) | 5.5 | 0.5 |
| CS(=O)(=O)Nc1ccc(Cc2noc(-c3ccc4[nH]cc(CCN)c4c3)n2)cc1 | 59.0 | 38.0 |
| CS(=O)(=O)N(Cc1nnc(-c2cccs2)o1)c1ccc(Cl)cc1F | 7.5 | 2.0 |
| Cn1c(N)c(C(=O)COC(=O)[C@@H]2CCCN2S(=O)(=O)c2ccc(Cl)cc2)c(=O)n(C)c1=O | 10.0 | 11.5 |
| O=C(COc1ccc2c(c1)[nH]c1ccccc12)NC1CC1 | 10.5 | 6.5 |
| Cc1[nH]c(SCC(=O)O)nc1Cc1ccccc1 | 30.5 | 26.5 |
| CC(Sc1nnc(COc2ccc(Cl)cc2)n1C)C(N)=O (configuration not stated) | -1.5 | -0.5 |
| O=C(CN1CCNC(=O)C1)NCCc1ccc(F)cc1 | 12.5 | 6.5 |
| COc1cccc(C(N)=O)c1OC(=O)COc1ccc(Br)cc1 | 13.0 | 4.0 |
| Cc1ccc(NC(=O)COC(=O)c2c(C)nsc2N)cc1C | 14.5 | 8.5 |
| O=C(CCc1nc2ccccc2c(=O)[nH]1)N1CCN(c2ccccc2)CC1 | 24.5 | 7.5 |
| CCCCNC(=O)Nc1ccc(S(=O)(=O)Nc2cccc(Cl)c2)cc1 | 34.5 | 4.5 |
| COc1ccc(CCNc2ncnc3sccc23)cc1 | 18.0 | 16.5 |
| CCN(CC)CCCNC1CCCC1 | 5.5 | 1.0 |
| CCOC(=O)c1noc(N)c1-c1ccccc1 | 22.5 | 18.5 |
| CCCCn1c(C)c(Cc2ccccc2)[nH]c1=O | 3.5 | 1.5 |
| O=C(Cn1nnc(-c2ccccc2)n1)NC(=O)NCc1ccccc1 | 4.0 | -1.0 |
| C=CCn1c(C)cc(C(=O)CSc2nnc3n2CCCCC3)c1C | 5.0 | 2.5 |
| CS/C(=N\S(=O)(=O)c1ccc(C)cc1)N1CCN(C(=O)c2cccs2)CC1 | 12.5 | 1.0 |
| Cc1ccc(-c2csc3ncn(-n4c(C)ccc4C)c(=O)c23)cc1 | -2.5 | -6.5 |
| N#Cc1nc2c(S(=O)(=O)c3ccc(Cl)cc3)c(N)n(Nc3cccc(Cl)c3)c2nc1C#N | 10.0 | 5.0 |
| O=C(OCc1cc(=O)oc2cc3c(cc12)CCC3)c1ccc(Br)o1 | -0.5 | -2.0 |
| COc1ccc(SCc2csc(NC(C)=O)n2)cc1 | 6.0 | 0.5 |
| Cc1cc(O)c2/c(=N\N)c(-c3csc(C)n3)coc2c1 | -10.5 | -3.5 |
| Cc1ccc(SC(C)C(=O)Nc2ccccc2C#N)cc1C (configuration not stated) | 8.0 | 4.5 |
| COc1ccccc1NC(=O)N(CC#N)c1ccccc1 | 18.5 | 15.0 |
| CCOCCCn1c(SCc2nc3sc(C(=O)O)c(C)c3c(=O)[nH]2)nnc1-c1ccc(Cl)cc1 | 13.5 | 8.0 |
| CCN(c1ncnc2c1oc1ccccc12)C1CCCCC1 | 13.0 | 3.0 |
| CCCn1nc(C(=O)N2CCN(CC)CC2)c2ccccc2c1=O | 12.0 | 11.5 |
| COC(=O)c1ccccc1NC(=O)CSc1ncn[nH]1 | 15.5 | 7.5 |

Other entries follow:
| Compound | BmaI1 | BmaI1 counterscreen |
| --- | --- | --- |
| NC(=O)COc1ccc2c(c1)OCO2 | 7.0 | 5.5 |
| O=C(NCc1ccccc1)c1cc(I)ccc1O | -8.0 | -10.0 |
| COc1ccc(CCn2c(C)cc(C(=O)COC(=O)c3ccco3)c2C)cc1 | -1.5 | -8.5 |
| CC(C)NC(=O)c1ccc(N(C)S(C)(=O)=O)cc1 | 15.5 | 10.0 |
| CCO/C=C1/C(=O)NC(=O)c2ccccc21 | 20.0 | -10.5 |
| COc1ccc(S(N)(=O)=O)cc1C(=O)NCc1ccc2c(c1)OCO2 | 11.5 | 9.5 |
| O=C(OCc1cccnc1)C1CCCN(C2=NS(=O)(=O)c3ccccc32)C1 (configuration not stated) | 12.5 | 6.5 |
| O=C(OCc1ncc(-c2ccccc2)o1)C1CC2CCCC(C1)C2=O (configuration not stated) | 21.0 | 6.5 |
| COc1ccc(N2CCN(CN3C(=O)NC(c4ccccc4)(c4ccccc4)C3=O)CC2)cc1 | -19.0 | -15.5 |
| C=CCNC(=O)c1ccc(S(=O)(=O)N2CCC(C)CC2)cc1 | 12.5 | 7.5 |
| CC(C)(C)NS(=O)(=O)c1ccc(S(=O)(=O)N2CCCC2)cc1 | 9.5 | 10.5 |
| CC(C)Cn1c(SCC(=O)Nc2sccc2C#N)nnc1-c1ccccc1F | 12.5 | 7.0 |
| Cc1cccc(Nc2ccccc2C(=O)O)c1C | 10.0 | 31.5 |
| O=C(NCC1CCCCC1)c1ccc2ncsc2c1 | 29.0 | 7.5 |
| CC(OC(=O)c1ccc(OC(F)F)cc1)C(=O)NC1CC1 (configuration not stated) | 2.5 | 3.5 |
| Cc1ccc(C)c(-n2nnnc2SCC(=O)OC(C)c2nc3sc(C)c(C)c3c(=O)[nH]2)c1 (configuration not stated) | 0.0 | -1.0 |
| CC(C1CC1)n1nccc1NC(=O)c1ccc(S(=O)(=O)N(C)C)cc1 (configuration not stated) | -3.0 | -1.0 |
| COc1ccc(C)cc1-n1nnnc1SCC(=O)N(CC(C)C)CC(C)C | 9.5 | 11.0 |
| O=C1CCCN1C(=O)CSc1nc2c(Cl)cc(Cl)cc2[nH]1 | 16.0 | 6.5 |
| CCN(C(=O)CSc1nnc(-c2ccco2)n1N)c1cccc2ccccc12 | 8.5 | 4.0 |
| CC1CCCC(C)N1C(=O)C1=COCCO1 (configuration not stated) | 10.5 | 9.5 |
| CCOC(=O)C1CCN(CC(=O)Nc2ccc(SC(F)F)cc2)CC1 | 13.5 | 10.0 |
| CC(=O)NCc1ccc(C(=O)COC(=O)C(c2ccccc2)c2ccccc2)o1 | 14.5 | 4.0 |
| O=C(COC(=O)c1ccco1)c1ccc(-n2nncc2-c2ccco2)cc1 | 12.5 | 7.0 |
| COc1ccc(N2C(=O)/C(=C\c3ccco3)N=C2SCC(=O)N2CCc3ccccc32)cc1Cl | 15.5 | 0.5 |
| CSc1ncccc1C(=O)NCCOc1ccccc1 | -2.5 | -0.5 |
| O=C1CN(CC(=O)Nc2ccc(SC(F)F)cc2)CCN1 | -9.5 | -8.5 |

Source: PubChem (ICCB-Longwood Screening Facility, Harvard Medical School)
